High-throughput results deposited in PubChem BioAssay by National Center for Advancing Translational Sciences (NCATS).
HPGD inh – inhibitors of human 15-hydroxyprostaglandin dehydrogenase (HPGD) | purified HPGD, NADH fluorescence kinetic, PGE2 substrate | 4.3% of 150,000 active | AID 894 | P15428 | Potency, µM, for the others: at the top dose activity change, negative = inhibition, hits mostly inhibitors; active = well fitted inhibition curve with a large enough effect (not every such curve was filed as active); inconclusive = small, poorly fitted or top-dose-only effect, or another doubt; inactive = no such curve, though single readings can be large or run the other way;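 further: top concentration of the series not given in the record; plate controls included wells without enzyme; inactives centre near -10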
Target sequence (P15428 whole entry, looked up): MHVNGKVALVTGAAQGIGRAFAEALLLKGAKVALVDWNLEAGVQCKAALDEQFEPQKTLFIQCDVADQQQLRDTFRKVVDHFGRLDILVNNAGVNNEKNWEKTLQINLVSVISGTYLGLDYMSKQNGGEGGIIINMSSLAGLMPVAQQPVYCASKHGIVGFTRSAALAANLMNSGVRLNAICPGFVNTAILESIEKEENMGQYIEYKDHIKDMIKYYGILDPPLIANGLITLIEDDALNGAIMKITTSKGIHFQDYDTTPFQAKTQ
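NADH formation kinetics: reaction with 30 uM PGE2 and 1 mM NAD+ (final), 20 nM enzyme, Tris-HCl pH 8 with Tween 20, after 15 min compound preincubation at room temperature. Fluorescence change, last versus first of five reads.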
Starred values were filed as active, the others as inactive; ? = inconclusive; & = joins results of further samples. On the % scale 0 is the no-effect control and ±100 the full control effect; potency means the concentration at half of the fitted maximal effect.

SMILES | HPGD inh
C[C@@H]1[C@H]2CC[C@@H]3[C@@H]4CC=C5C[C@@H](N(C)C)CC[C@]5(C)[C@@H]4CC[C@@]32CN1C | -9%
CCOC(=O)c1c(C)nc2sc(C(N)=O)c(N)c2c1-c1ccccc1 | -9%
COc1cccc(-n2c(SC3CCOC3=O)nc3ccccc3c2=O)c1 (stereo not given) | -13%
CC(=O)Nc1ccc(S(=O)(=O)NC(CC(=O)N(C)Cc2ccccc2)C(C)C)cc1 (stereo not given) | -4%
CCOc1ccc(NCc2ccccc2OCc2cccc(F)c2)cc1 | -20%
COc1cc(OC)c(-c2noc(C(=O)OC(C)(C)C)c2C(=O)OC(C)(C)C)c(OC)c1 | -19%
CCOC(=O)c1c(NC(=O)COC(=O)Cn2c(C(F)(F)F)nc3ccccc32)sc(C)c1C | -20%
COc1ccc(C(NC(=O)/C=C/c2ccco2)c2ccc(OC)c(OC)c2)cc1OC | -12%
COc1ccc(CCNC(=O)C2CCC(CNc3c(N4CCCC4)c(=O)c3=O)CC2)cc1OC (stereo not given) | -10%
CCN(CC)S(=O)(=O)c1ccc(Cl)c(NC(=O)COC(=O)/C=C/c2ccc(O)c(OC)c2)c1 | ?
C/C(CC1CC(COCC(C)C)OC1=O)=N\Nc1nc(-c2ccccc2)cs1 (stereo not given) | -18%
CC1=C(C#N)C(Nc2ccc(C)cn2)(C(F)(F)F)C(=O)N1 (stereo not given) | 0%
CC(=O)c1cccc(NC(=O)Nc2c(C)nn(C)c2C)c1 | -11%
c1coc(Cn2nnnc2CN2CCN(C3CCCC3)CC2)c1 | -4%
COc1cccc(NC(=O)Cc2c(C(=O)O)[nH]c3ccccc23)c1 | -12%
CCOC(=O)c1c(C)[nH]c(C(=O)OCC(=O)N(C)C2CCS(=O)(=O)C2)c1C (stereo not given) | -4%
CCOc1cccc(OCCCCn2ccnc2)c1 | 1%
O=S(=O)(c1ccccc1)N1CCN=C1SCc1ccc(Cl)c(Cl)c1 | -11%
COc1cccc(Nc2ncc3nc(-c4ccc(F)cc4)c(=O)n(CCC#N)c3n2)c1 | -9%
O=C(O)CCNS(=O)(=O)c1ccc2ccccc2c1 | -7%
COc1ccc(S(=O)(=O)N(C)CC(=O)Nc2cccc(C(C)=O)c2)cc1 | -7%
OC(c1ccccc1)c1nc2ccccc2s1 (stereo not given) | 16µM*
Cc1cc(C)n2nc(SCC(=O)Nc3c(C)nn(-c4ccccc4)c3C)nc2n1 | -10%
COc1ccc(-n2ncc3c(=O)n(CC(=O)OCc4ccccc4)cnc32)cc1 | -4%

Three consecutive compounds already listed, quoted:
SMILES | HPGD inh
CC(=O)c1cccc(NC(=O)Nc2c(C)nn(C)c2C)c1 | -11%
c1coc(Cn2nnnc2CN2CCN(C3CCCC3)CC2)c1 | -4%
COc1cccc(NC(=O)Cc2c(C(=O)O)[nH]c3ccccc23)c1 | -12%

(more compounds)
SMILES | HPGD inh
COc1ccc(CC(=O)Nc2nnc(SCc3ccccc3)s2)cc1S(=O)(=O)N1CCOCC1 | -17%
CCC1(C)CC(=O)N(c2ccc(C(=O)O)c(O)c2)C1=O (stereo not given) | -30%
COc1cc(NC(=O)CN2CCN(c3ccccc3)CC2)c(C)cc1[N+](=O)[O-] | -10%
Cc1ccc(CSCC(=O)N2CCOCC2)cc1 | -14%
c1ccc2c(c1)[nH]c1nc3nncn3nc12 | -1%
Cc1cc(C(=O)CSc2nnc(Nc3ccccc3)s2)c(C)n1CC1CCCO1 (stereo not given) | -12%
COc1cc([N+](=O)[O-])cc(/C=N/NC(=O)C(C)Nc2cccc3ccccc23)c1O (stereo not given) | -24%
Cc1ccc2nc(NC(=O)C3CCCN(S(=O)(=O)c4cccnc4)C3)sc2c1 (stereo not given) | -7%
COc1cccc(OCC(=O)Nc2ccc(OC)c(OC)c2)c1 | 5%
C/C(=N\NC(=S)NC(C)C)c1ccc(Cl)s1 | ?
NC(=O)CSc1nnc2sc3ccccc3n12 | -14%
Cc1cccc(-n2ncc3c(N4CCOCC4)ncnc32)c1 | -6%
CC(C)OC(=O)CSc1nc(-c2ccc(F)cc2)cc(C(F)(F)F)n1 | -21%
COC(=O)c1sc(NC(=O)/C=C/c2ccc(C)o2)nc1C | 5%
CN1C(=O)c2ccc(C(=O)NCc3ccccc3)cc2C1=O | -9%
Oc1ccc(Cl)cc1-c1cc(-c2ccccc2Cl)[nH]n1 | 7.9µM*
Cc1ccc(Sc2c(C#N)c(-c3ccccc3)nn2C)cc1 | -11%
CCC1C(=O)N=C(SCC(=O)Nc2ccc(C(=O)OC)cc2)NC1=O (stereo not given) | 14µM*
Cc1ccc2nc(Cc3ccc(N)cc3)[nH]c2c1 | -19%
CC12CC3(C)CC(C)(C1)CC(C(=O)NC(=S)N1CCOCC1)(C2)C3 | -9%
O=C(NNC(=S)NCc1ccccc1)c1ccccc1OC(F)F | -9%
Cc1ccc(NC(=O)N2CCc3ccccc3C2)cc1 | -16%
CN(C)CCCn1c(SCC(=O)Nc2sc3c(c2C#N)CCCC3)nnc1-c1ccncc1 | 6%
COc1ccc(-c2nc(NC(=O)c3n[nH]c(=O)c4ccccc34)sc2C)cc1 | -13%
O=C1C2C3C=CC(CC3)C2C(=O)N1/N=C/c1ccc(O)c(O)c1 (stereo not given) | -19%
Cn1cc(C(F)(F)F)nc1-c1ccc(OCC(O)CNCCOc2ccc(O)c(C(N)=O)c2)cc1 (stereo not given) | ?
CCN(CC)c1ccc(NC(=O)CN2CCN(c3ccccc3F)CC2)cc1 | -5%
CCCCn1nnnc1NCc1cccc(OC)c1OC | -8%
COc1ccc(NC(=O)CN(C)S(=O)(=O)c2ccc(Cl)cc2)c([N+](=O)[O-])c1 | -6%
COc1c(CO)cc(CO)cc(CO)c1=O | -3%
Cn1c(=O)c([N+](=O)[O-])c(NCCc2ccccc2)c2ccccc21 | 16µM*
COc1ccc(NC(=O)CSc2nnc(-c3ccccc3)n2N)cc1 | -9%
CCn1ncc(C2=NOC(C(=O)NCc3ccc(OC)cc3)C2)c1C (stereo not given) | -11%
N[C@@H](Cc1cc(-c2ccc(Cl)cc2Cl)cc(CP(=O)(O)O)c1O)C(=O)O | ?
Cc1[nH]c(=O)[nH]c(=O)c1S(=O)(=O)N1CCCC(C(=O)NCc2ccco2)C1 (stereo not given) | -2%
CCNc1ccc(C(=O)Nc2ccc3nc(C)sc3c2)cc1[N+](=O)[O-] | -23%
Cn1cccc1C(=O)N1CCN(c2cccc(C(F)(F)F)c2)CC1 | -15%
O=C(NCCN1CCOCC1)c1csc2c1CCCC2 | -15%
CCc1nn(C(C)C(=O)N2CCc3ccccc3C2)c(=O)c2cc3occc3n12 (stereo not given) | -6%
CC(=O)O[C@]1(C(C)=O)CC[C@H]2[C@@H]3C[C@H](C)C4=CC(=O)CC[C@]4(C)[C@H]3CC[C@@]21C | -1%&-3%
CCOC(=O)Cc1nnc(NC(=O)CSc2ccc(C)cc2)s1 | -7%
CC(C)NS(=O)(=O)c1ccc(OCC(=O)NCCC2=CCCCC2)cc1 | -4%
CCC(C(=O)Nc1ccccc1OC)n1c(C(=O)OC)cc2ccsc21 (stereo not given) | -12%
Cc1cccc(Cn2c(=O)n(CCCC(=O)NCc3ccco3)c(=O)c3ccccc32)c1 | -28%
Nc1nc(SCC(=O)N2CCc3ccccc32)[nH]c(=O)c1-c1ccccc1 | -15%
CCn1c(SCC(=O)Nc2c(C)n(C)n(-c3ccccc3)c2=O)nnc1-c1cccc(C)c1 | -6%
COc1cccc(C2(O)CCN(C(=O)C3CCC3)CC2)c1 | -6%
CC(=O)N1CC=CC1(C)C(=O)O (stereo not given) | -6%&-4%

A draw from above in order of molecular weight, largest number first.
SMILES | HPGD inh
CCc1nn(C(C)C(=O)N2CCc3ccccc3C2)c(=O)c2cc3occc3n12 (stereo not given) | -6%
CC(=O)O[C@]1(C(C)=O)CC[C@H]2[C@@H]3C[C@H](C)C4=CC(=O)CC[C@]4(C)[C@H]3CC[C@@]21C | -1%&-3%
CC(C)NS(=O)(=O)c1ccc(OCC(=O)NCCC2=CCCCC2)cc1 | -4%
CC(=O)N1CC=CC1(C)C(=O)O (stereo not given) | -6%&-4%

Returning to the listing; the two compounds before the break are reprinted first.
SMILES | HPGD inh
COc1cccc(C2(O)CCN(C(=O)C3CCC3)CC2)c1 | -6%
CC(=O)N1CC=CC1(C)C(=O)O (stereo not given) | -6%&-4%
COc1ccccc1NC(=O)c1ccc(NC(=O)CSc2n[nH]c(N)n2)cc1 | -5%
Cc1cccc(OCC(=O)NCCN2CCOCC2)c1 | -24%
COc1ccc(C2C(C#N)=C(N)Oc3cc(O)ccc32)cc1OC (stereo not given) | -28%
C[C@@H]1C[C@H]2[C@@H]3C[C@H](F)C4=CC(=O)C=C[C@]4(C)[C@@]3(F)[C@@H](O)C[C@]2(C)[C@@]1(O)C(=O)CO | 0%
CC1=NN(c2ccc(C(F)(F)F)cn2)C(=O)C1 | -9%
COc1ccc(-n2nnc3c(SCC(=O)N4CCCc5ccccc54)ncnc32)cc1 | -4%
COc1ccc(NC(=O)COc2nsnc2N2CCCCC2)cc1 | -26%
COc1cc(C(=O)OCC(=O)NC2CCS(=O)(=O)C2)ccc1OCc1c(C)noc1C (stereo not given) | -15%
CCOC(=O)c1nc2sc(C)c(C)c2c(=O)[nH]1 | ?
O=C(CSc1ccc(-c2ccco2)nn1)NCc1ccccc1 | ?
CCCc1cc(C(=O)Nc2ccccc2SC)no1 | 22µM*
O=C1CN(C(=O)COC(=O)c2cccc(S(=O)(=O)NCc3ccccc3)c2)c2ccccc2N1 | ?
O=C(Cn1nc(C(F)F)cc1C(F)F)NNC(=S)Nc1ccc(Cl)cc1 | -12%
CCOc1ccc(C2=[N+]([O-])C(C)(C)N(O)C2(C)C)cc1 | -1%
O=C(Nc1ccc(O)c(-c2nc3ccccc3o2)c1)C1(c2ccccc2)CCCC1 | -20%
CC(Sc1ncc(C#N)c(N)n1)C(=O)Nc1ccccc1 (stereo not given) | -2%
C=CCOc1ccc(NC(=O)C(=O)NCCCn2ccnc2)cc1 | 1%
Cc1cc(=O)[nH]c(SCC(=O)c2ccc(C)c(C)c2)n1 | -22%
C=CCn1c(SCC(=O)N(C)C2CCS(=O)(=O)C2)nnc1-c1ccncc1 (stereo not given) | -4%
COC(=O)c1ccc(SC)cn1 | 0%
O=C(CN1C(=O)C2(OCCCO2)c2ccccc21)NCCc1ccccc1 | -6%
COc1ccc(C2C(C#N)=C(N)Oc3cc(N)ccc32)cc1OC (stereo not given) | ?
CC1(C(=O)Nc2nnc(SCc3ccccc3)s2)Cc2ccccc2C(=O)O1 (stereo not given) | 28µM*
CCOC(=O)c1ccc2c(c1)C(=O)N(C1CCCCC1)C2=O | -8%

Look-ups from the entries so far.
HPGD inh result of O=C(Cn1nc(C(F)F)cc1C(F)F)NNC(=S)Nc1ccc(Cl)cc1 is entered as -12%
HPGD inh result of COC(=O)c1ccc(SC)cn1 is entered as 0%
HPGD inh result of C=CCn1c(SCC(=O)N(C)C2CCS(=O)(=O)C2)nnc1-c1ccncc1 (stereo not given) is entered as -4%
HPGD inh result of O=C(CN1C(=O)C2(OCCCO2)c2ccccc21)NCCc1ccccc1 is entered as -6%
HPGD inh result of CC1(C(=O)Nc2nnc(SCc3ccccc3)s2)Cc2ccccc2C(=O)O1 (stereo not given) is entered as 28µM*
HPGD inh result of CC(Sc1ncc(C#N)c(N)n1)C(=O)Nc1ccccc1 (stereo not given) is entered as -2%

Following part.
SMILES | HPGD inh
Cc1ncc(CO)c(CN)c1O | -7%
O=C(Cn1c(CSc2ccccc2)nc2ccccc21)Nc1ccccc1 | -2%
O=C1CN2Cc3c(ccc(Cl)c3Cl)N=C2N1 | -8%
COc1ccc2c(c1)[n+](=O)c(C(C)=O)c(C)n2[O-] | -28%
CC1CCN(CCOc2ccc(OCc3ccccc3)cc2)CC1 | -8%
Cn1cc(C(=O)N/N=C/c2cccs2)c2ccccc21 | -22%
O=C(Nc1ccc(Cl)cc1)C1CCN(C(=O)NC2CCCCC2)CC1 | -5%
O=C(N/N=C/c1coc2ccccc2c1=O)c1cn(-c2ccccc2)nc1-c1ccc(F)cc1 | -14%
Nc1c(NC2CCCCC2)c2ccccc2oc1=O | -16%
C[n+]1cccc(/C=C\c2ccc3cccc(O)c3n2)c1 | 1%
CC1(C)C2CC=C(/C=N/NC(=O)c3ccccc3O)C1C2 (stereo not given) | ?
COc1cccc(NC(=O)N2CCC(N3CCCCC3)CC2)c1 | -4%
CC1(OC(=O)C2CCCC2)C(=O)C=C2C=C(c3ccsc3)N(c3cccc(C#N)c3)C=C2C1=O (stereo not given) | ?
CCOC(=O)c1ccc(NC(=O)CSc2nc3ncccc3[nH]2)cc1 | -9%
CC(C)=CCC/C(C)=C/C=O | -11%
CCOC(=O)c1cc(NC(=O)c2ccc(OC)cc2)c(=O)oc1-c1ccccc1 | -9%
NC(=O)CNC(=O)[C@@H]1CC2(CC(c3ccccc3)=NO2)CN1C(=O)c1ccc(Br)cc1 (stereo not given in full) | 0%
Cc1ccc(NC(=O)c2oc3c(c2C)C(=O)CC(C)(C)C3)cc1 | -3%
Cc1ccc(N=Cc2c(O)ccc3ccccc23)cc1F | -22%
N#CC1=C2N=C(N)c3ccccc3N2C2=C(C(=O)CCC2)C1c1cccc(Cl)c1 (stereo not given) | -9%
CCCCSc1nn[nH]n1 | -3%
O=C(/C=C/c1ccccc1)NCCc1ccc2c(c1)OCCO2 | -7%
COc1cccc(C(=O)Nc2ccc(N(C)C)cc2)c1OC | -8%
COc1ccc(S(=O)(=O)NCc2ccccn2)cc1Cl | -8%
CC1(OC(=O)c2ccc(Cl)nc2)C(=O)Cc2cc(-c3ccsc3)ncc2C1=O (stereo not given) | 2%
S=c1[nH]cc(-c2ccc(Cl)cc2)n1-c1ccccc1 | ?
CCOC(=O)c1ccc(NC(=O)CN2C(=O)CSCC2=O)cc1 | -6%
CC(=O)NC12CC3CC(C1)CC(C(=O)OCC(=O)NC(=O)c1cccn1C)(C3)C2 | -8%

The list is partial; the hit share may differ from the screen's.
